TRPML1 agonist: activates the human TRPML1 channel; Q9GZU1; TRPML1-expressing cells, Ca2+ dye fluorescence, FDSS; host cell line not named in the record; reference of the full effect not given here; activation, % (concentration not given with the values); 410,000 tested, 0.12% active; in the data active = activation above about 50%; inconclusive = about 30% to 50%; inactive = below about 30%; also: 0% is about no effect; the text of the record puts the active cut at 80%
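In this qHTS format, compounds were pin-transferred onto Ca8-dye-loaded TRPML1-DL cells induced with Tet overnight, and intracellular Ca2+ fluorescence was recorded kinetically for 110 s after a 10 s baseline. A subsequent 4uM final 54-4 (EC80) addition followed by a second 110 s read served as the antagonist phase.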
Menin-MLL FL inh: displaces fluorescein MLL peptide from human menin; Fluorescence polarization, fluorescein-MLL peptide displacement from menin; FP activity change, % at 61.4 µM; 290,000 tested, under 10 active; AID 1766; inconclusive = falling polarisation curve, or a change in total fluorescence; inactive = total fluorescence flat and polarisation flat or rising; no compound was filed as active; the % refers to the polarisation; negative = inhibition;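 also: % of control where 0% means no effect; inhibitors lower the polarisation; unlabelled MLL peptide was the positive control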
PINK1 expr mod: modulators of PINK1 expression; Potency, µM (series often up to 76.6 µM), inactives show at the highest dose activation (PINK1 increase), actives largely listed as activators; 410,000 tested, 0.2% active; PINK1 immunofluorescence, high-content cytometry, 24 h; active = well fitted activation curve with a large enough effect; inconclusive = small, poorly fitted or top-dose-only effect; inactive = flat fitted curve, though single readings scatter; cell line not stated here;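 also: potency is read from the fitted curve at half-maximal effect; % of control where 0% means no effect; nearly all actives have a fitted effect of over 65% in size; a mitochondrial uncoupler was the plate control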
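A stable cell line was treated with compounds at 5 concentrations for 24 hours, with CCCP as control. PINK1 levels and mitochondrial localization were measured by immunofluorescence with mitochondrial, cell and nuclear markers after fixation, read by laser-scanning cytometry.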
Sfp PPTase inh: Sfp phosphopantetheinyl transferase inhibition. Q9F4F7. AID 1490. Potency, µM, for the others: max response, negative = inhibition, usual class: inhibitors. 310,000 tested, 3.5% active. Biochemical Sfp PPTase activity, qHTS; active = well fitted inhibition curve with a large enough effect; inconclusive = small, poorly fitted or top-dose-only effect, or another doubt; inactive = no such curve, though single readings can be large or run the other way;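 also: the enzyme is Sfp with the accession as filed and its product quenches rhodamine fluorescence; potency is read from the fitted curve at half-maximal effect; 0% = enzyme reaction without inhibitor and -100% = no enzyme wells; top concentration of the series not given in the record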
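Compounds were incubated with enzyme (final 15 nM) for 15 min at room temperature before substrate addition started the reaction. Fluorescence at 525 nm excitation, 598 nm emission was recorded immediately and after 30 minutes.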
ClpP mod: qHTS Assay for Activators of ClpP. purified B. subtilis ClpP, FRET peptide cleavage, 20 min. AID 651965, 2013. ATP-dependent Clp protease proteolytic subunit (Bacillus subtilis (strain 168)), P80244. 340,000 tested, 1.9% active. Potency, µM (highest dose often 57.5 µM), for inactives: at the top dose activity change, negative = active; active = well fitted falling curve with a large enough effect; inconclusive = small, poorly fitted or top-dose-only effect; inactive = no such curve, though single readings can be large or run the other way; also: potency is read from the fitted curve at half-maximal effect; the source files actives as falling curves though it sought activators and does not explain the sign; nearly all actives have a fitted effect of over 65% in size; many hits overshoot -100%
Target sequence (P80244 whole entry, looked up): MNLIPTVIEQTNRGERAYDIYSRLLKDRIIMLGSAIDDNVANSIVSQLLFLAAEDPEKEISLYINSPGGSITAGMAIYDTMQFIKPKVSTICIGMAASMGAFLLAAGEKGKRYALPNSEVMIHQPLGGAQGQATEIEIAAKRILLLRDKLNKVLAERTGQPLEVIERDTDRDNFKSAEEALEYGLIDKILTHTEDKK
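Buffer: 100 mM Tris/HCl pH8, 100 mM KCl, 0.05% low protease BSA, 2.5% glycerol, 0.01% Tween-20. ClpP 10 microg/mL final; 20 min RT; delta FRET normalized to ADEP and DMSO controls.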
TRPML1 blocker: human mucolipin-1 channel inhibition. TRPML1-inducible cells, Ca2+ dye fluorescence, FDSS; hits give low values; inhibition of EC80 agonist-evoked calcium signal. activity change, negative = inhibition, % (test concentration not listed). 390,000 tested, 0.02% active. AID 624415; in the data active means activity change below about -50%; inconclusive means about -30% to -50%; inactive means above about -30%;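 also: stimulus is agonist 54-4 at its EC80 concentration; % is scaled to controls: 0 for no effect and ±100 for the full control effect; compound concentration not given in the record; the text of the record puts the active cut at -80%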
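Calcium fluorescence in TRPML1-DL cells induced overnight with Tet: a 110 s read after compound pin addition, then a 110 s antagonist read after challenge with 54-4 at 4 uM final (EC80).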
TRPV1 PAM: human TRPV1 potentiation | TRPV1-expressing cells, Fluo-8 calcium influx, capsaicin EC20 potentiation; host cell line not named in the record; control for the full effect not named in the record | potentiation, % at 8.33 µM | 320,000 tested, 0.02% active | AID 540277; active means potentiation above 80%; inconclusive means 30% to 80%; inactive means below 30%; also: 0% is about no effect
Target sequence (Q8NER1 whole entry, looked up): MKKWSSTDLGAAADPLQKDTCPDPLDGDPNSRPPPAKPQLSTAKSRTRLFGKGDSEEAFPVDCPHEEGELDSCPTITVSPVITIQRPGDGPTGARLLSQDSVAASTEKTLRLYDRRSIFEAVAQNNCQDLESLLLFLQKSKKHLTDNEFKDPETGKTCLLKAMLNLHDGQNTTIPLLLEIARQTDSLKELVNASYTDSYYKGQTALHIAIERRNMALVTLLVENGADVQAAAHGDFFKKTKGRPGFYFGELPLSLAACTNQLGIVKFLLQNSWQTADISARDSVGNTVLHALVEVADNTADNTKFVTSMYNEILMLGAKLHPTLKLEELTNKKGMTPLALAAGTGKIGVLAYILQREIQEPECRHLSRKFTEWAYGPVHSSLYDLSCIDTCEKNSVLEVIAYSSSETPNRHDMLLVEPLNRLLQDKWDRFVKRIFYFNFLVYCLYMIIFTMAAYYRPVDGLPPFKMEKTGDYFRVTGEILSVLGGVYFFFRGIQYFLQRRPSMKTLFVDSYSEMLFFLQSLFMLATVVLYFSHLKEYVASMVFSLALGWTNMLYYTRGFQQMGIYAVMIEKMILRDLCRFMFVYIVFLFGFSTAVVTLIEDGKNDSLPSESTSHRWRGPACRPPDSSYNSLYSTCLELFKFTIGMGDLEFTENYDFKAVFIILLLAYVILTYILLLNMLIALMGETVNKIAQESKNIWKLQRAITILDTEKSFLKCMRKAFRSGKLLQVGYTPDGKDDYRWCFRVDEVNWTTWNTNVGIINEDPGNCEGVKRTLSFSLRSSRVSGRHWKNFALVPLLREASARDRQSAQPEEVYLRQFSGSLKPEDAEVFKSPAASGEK
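TRPV1-expressing cells were cultured overnight at 35.5C and loaded with Fluo-8 calcium dye for 40 to 90 min at room temperature. After a 10 s baseline, compound was added and calcium influx was read kinetically for 3 min (ex 480/em 520 nm).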
An asterisk follows results filed as active; ? = inconclusive; nt = no result given; & = joins results of further samples; [ ] = dose if it differs, or a comment. Outcome played no part in choosing rows. Share with any hit: about 4.4%.

Screens in order: TRPML1 agonist, Menin-MLL FL inh, PINK1 expr mod, Sfp PPTase inh, ClpP mod, TRPML1 blocker, TRPV1 PAM
1	C=CCn1c(C(CC)CC(C)(C)O)n[nH]c1=S (stereo not drawn)
→ 0.3, -5.8, 0.7%, -12%, 0.1%, -14, -1
2	N#Cc1ccc(C(=O)OCC(=O)NC(=O)NCc2ccccc2)cc1
→ -0.5, nt, -1.7%, nt, -0.4%, 10, -4
3	Cc1cccc(NC(=S)NC(=O)c2cccs2)n1
→ 2.5, 3.3, 1.0%[38.3 µM], -23%, 26%, -12, 28
4	Cc1ccc(C(=O)c2cc([N+](=O)[O-])ccc2N2CCOCC2)c(C)c1
→ 0.7, 2.3, 6.1%, -3%, ?, -5, -15
5	Cc1ccccc1OCc1ccc(-c2nc(C#N)c(N3CCC(C(N)=O)CC3)o2)o1
→ 0.9, nt, 3.7%, nt, 3.9%, -19, nt
6	CC(=O)c1ccc(NC(=O)c2nc(-c3ccccc3)n(-c3ccccc3Cl)n2)cc1
→ 0.4, nt, -0.9%, nt, 0.3%, -7, nt
7	Cc1ccc(NC(=O)CSc2nnc(COc3ccccc3C)o2)cc1
→ 1.0, -3.3, 2.3%, 5%, nt, 2, 6
8	Cc1c(C(=O)Nc2ccc(Oc3ccccc3)cc2)sc2nc3n(c(=O)c12)CCC3
→ 0.7, 0.0, 1.3%, -6%, -11%, 4, -5
9	Cc1cccc(N(CC(=O)NC(C)C)C(=O)c2ccc(N3CCCC3)nc2)c1
→ 0.3, -3.3, 1.5%, 4%, nt, -1, 2
10	CC(C)NC(=O)c1ccccc1NC(=O)CN(c1ccc2c(c1)OCO2)S(C)(=O)=O
→ 0.1, 5.8, nt, 22%, -2.7%, 15, -1
11	CC(NS(=O)(=O)OCC(Cl)(Cl)Cl)c1ccc(Br)cc1 (stereo not drawn)
→ -0.4, -7.1, 24%, 12%, -1.2%, 13, -7
12	O=C(NCc1cccc(F)c1F)C1CCC(=O)N(C2CC2)C1 (stereo not drawn)
→ 0.9, nt, 0.1%, 17%, -3.3%, 11, 2
13	CC[C@@H]1C=C(C(=O)O)[C@H](c2ccc(OC)c(OC)c2)N1S(=O)(=O)c1ccc(C)cc1
→ 0.8, nt, -0.3%, nt, -2.1%, 32, nt
14	OCCN(Cc1ccccc1)CC(O)COc1ccc2c(c1)OCO2 (stereo not drawn)
→ 0.7, 0.1, -0.2%, 4%, 1.4%, 24, 2
15	Oc1ccc(C(c2nnnn2CCc2ccccc2)N2CCN(c3nc4ccccc4s3)CC2)cc1 (stereo not drawn)
→ nt, 4.8, 0.7%, 19%, -0.3%, nt, 13
16	COCCNc1nnc(SCC(=O)Nc2sc3c(c2C(=O)c2ccccc2)CCCC3)s1
→ 1.5, 1.1, 1.4%, ?, 2.4%, 21, 9
17	COc1ccccc1N1CCN(S(=O)(=O)CCNC(=O)C2CCCC2)CC1
→ -0.4, nt, 2.5%, nt, -4.4%, 8, -4
18	CCOC(=O)CSC1=C(C#N)C(c2ccccc2OC)CC(=O)N1 (stereo not drawn)
→ -0.9, 0.4, 8.0%, 16%, 2.5%, 6, ?
19	CCc1ccc2nc(SCC(=O)Nc3ccccc3N3CCOCC3)c(C#N)cc2c1
→ -0.2, 0.8, 3.7%, -3%, nt, 31, 18
20	O=S(=O)(c1ccc(OCC2CO2)cc1)c1ccc(OCC2CO2)cc1 (stereo not drawn)
→ 0.7, -2.1, 0.9%, -1%, -0.8%, -7, -15
21	Cc1csc(NC(=O)CSc2nc(=O)cc(N)n2-c2ccc(F)cc2)n1
→ -0.3, -2.9, -0.4%, 11%, -2.0%, -6, 2
22	COc1ccc(-n2c(SCC(=O)Nc3cccc4ccccc34)nc(O)cc2=O)cc1
→ 0.4, 4.6, 3.4%, -12%, nt, 2, 26
23	C=CCn1c(SCC(=O)N2CCOCC2)nc2c([nH]c3ccccc32)c1=O
→ -0.4, nt, 1.8%, -1%, ?, 19, -9
24	CCCN1C(=O)NC2(O)C(=O)c3ccccc3C12O (stereo not drawn)
→ -0.7, -3.0, -1.1%, -12%, 0.9%, 36, -7
25	Oc1c(Br)cc(/C=N/n2c(-c3ccccc3)n[nH]c2=S)cc1Br
→ 0.8, -1.7, 3.6%, -19%, -0.8%, 40, -7
26	O=C(COC(=O)c1ccccc1Br)NCCc1ccc(F)cc1
→ 0.1, 1.8, 1.1%, 2%, 0.1%, 12, -9
27	Cc1ccc2onc(CC(=O)N3CCN(c4ccccc4F)CC3)c2c1
→ -0.4, nt, 0.4%, nt, 1.5%, 3, nt
28	CS(=O)(=O)N1CCCC(C(=O)NCCCN2CCN(Cc3ccccc3)CC2)C1 (stereo not drawn)
→ 0.4, 4.8, -3.9%[38.3 µM], 7%, -0.5%, -5, 2
29	CC(C)(C)c1ccc(C(=O)NCCCN2CCN(CCCNC(=O)c3ccc(C(C)(C)C)cc3)CC2)cc1
→ -0.3, 5.7, -3.5%, ?, -11%, 4, 25
30	O=C(O)c1ccc(N2CCCCCC2)c(N2C(=O)c3ccccc3C2=O)c1
→ -0.7, -0.1, 1.1%, 19%, 0.7%, -1, -2
31	Cc1cc(C)c(S(=O)(=O)Nc2ccc(OCC(=O)O)cc2)c(C)c1
→ -0.1, 9.2, 1.4%, ?, 2.6%, 11, 4
32	COC(=O)c1cc(NC(=O)c2cccs2)ccc1N1CCOCC1
→ 0.0, 0.8, 6.5%, -14%, nt, 3, -11
33	COc1c(-c2ccc(O)c(O)c2)oc2cc(O)cc(O)c2c1=O
→ nt, ?, 2.9%, -13%&-26%, -1.8%, nt, 6
34	CC(Sc1nc2ccccc2c(=O)n1C)C(=O)Nc1ccc2c(c1)OCCO2 (stereo not drawn)
→ 1.0, nt, 0.3%, nt, 1.5%, 12, -4
35	Cc1[nH]c(=S)[nH]c(=O)c1Cc1ccc(OCC(C)C)cc1
→ 0.2, 2.2, -0.3%, 15%, nt, 15, 8
36	CC1(C(=O)NCc2cccc(Cl)c2)Cc2c(-c3cccc(C(N)=O)c3)ccnc2O1 (stereo not drawn)
→ -1.3, nt, 8.3%, nt, -0.6%, nt, nt
37	CSc1ccc2c(c1)C(N1CCN(C)CC1)Cc1ccc(F)cc1S2 (stereo not drawn)
→ 0.0, nt, -2.0%, nt, -1.6%, 26, nt
38	C1COCCNCCOCCOCCN1
→ 3.9, ?, -1.9%, 11%, 3.0%, 6, 2
39	COc1ccc(-n2nnnc2SCC(=O)N2CCOCC2)cc1
→ 0.1, -1.2, 4.3%, 31%[activator], 0.2%, -22, -7
40	Fc1ccc(OCCOCCOc2cccc3[nH]ccc23)cc1
→ 0.5, -0.8, -0.8%, 20%, -1.4%, -7, 7
41	Cc1c(Cl)cccc1NC(=O)CN1C(=O)COc2ccc(S(=O)(=O)N3CCCCCC3)cc21
→ -0.9, nt, -0.3%, nt, -0.9%, 9, nt
42	COc1ccc(C2Oc3nc(SC)nnc3-c3ccccc3N2C(C)=O)cc1 (stereo not drawn)
→ 1.2, nt, -0.3%, nt, -3.0%, -1, nt
43	COCCN(CCOC)C(=O)c1cc2c(=O)n3ccccc3nc2s1
→ -0.2, 1.5, 3.8%[38.3 µM], 8%, 38%, 3, -1
44	Cc1cc(C)nc(NC(=O)c2ccc(Br)cc2)n1
→ 0.3, 2.9, 1.0%, 4%, nt, -1, -24
45	CCc1ccc(OC)c(S(=O)(=O)Nc2ccccc2C)c1
→ 0.1, -1.5, nt, 12%, 0.5%, -5, -9
46	CCOC(=O)CSc1nnc(-c2ccncc2)o1
→ -0.1, 5.0, 0.6%, 15%, ?, -9, -6
47	O=C(NCc1ccc(F)cc1)c1cc(C2CCCCN2C(=O)c2ccc(Cl)cc2)on1 (stereo not drawn)
→ 0.2, nt, 1.6%, nt, -3.3%, nt, nt
48	COc1cc(Cl)cc2c1Sc1ccccc1/C2=C/CCN(C)C
→ 0.9, 4.8, 0.7%, -17%, -4.0%, 14, -5
49	NC(=O)Cc1ncc(C(F)(F)F)cc1Cl
→ 3.8, 1.6, -0.3%, 5%, -1.4%, 13, -5
50	CC(C)(C)OC(=O)NCCC(=O)N/N=C/c1cccc2cccnc12
→ -0.8, 2.3, 2.0%, -8%, nt, 5, -2
51	Cc1ccc(CN(C)c2nc(-c3cccnc3)nc3ccccc23)o1
→ 4.4, -3.4, 0.1%, 0%, nt, 39, -9
52	Cc1ccc(C(=O)CC2(O)C(=O)N(Cc3ccc4c(c3)OCO4)c3ccccc32)cc1 (stereo not drawn)
→ 1.9, -2.9, 0.5%, 1%, 16µM*, 4, 24
53	O=C(CSc1nnnn1C1CCCCC1)NCc1cccs1
→ 0.9, 0.0, 2.6%, 4%, -0.9%, 6, -3
54	Cc1ccc(N(CC(=O)N2CCc3ccccc32)C2=NC(=O)CS2)cc1
→ 1.6, -0.2, 1.5%, -9%, -0.8%, -14, -12
55	Cc1occc1-c1nnc(SCC(=O)c2ccc(F)cc2)n1Cc1ccco1
→ -0.7, 5.8, 1.2%, ?, -0.7%, -1, 2
56	COc1cccc(CNS(=O)(=O)/C=C/c2ccc3c(c2)OCO3)c1
→ 0.5, 3.5, -1.5%, 0%, -27%, 8, -9

Some entries already given, reduced to TRPML1 agonist:
cpd | mol | TRPML1 agonist
45 | CCc1ccc(OC)c(S(=O)(=O)Nc2ccccc2C)c1 | 0.1
46 | CCOC(=O)CSc1nnc(-c2ccncc2)o1 | -0.1
47 | O=C(NCc1ccc(F)cc1)c1cc(C2CCCCN2C(=O)c2ccc(Cl)cc2)on1 (stereo not drawn) | 0.2
48 | COc1cc(Cl)cc2c1Sc1ccccc1/C2=C/CCN(C)C | 0.9

Compound activity as filed in PubChem.
